Env fusion inh – inhibitors of HIV-1 Env-driven cell-cell fusion, primary screen, HeLa-JRFL effector, CEM21 target cells, luciferase. inhibition, % at 12.3 µM. hit rate 1.1% among 360,000;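 active = mean replicate inhibition score of at least 50 and every replicate individually at or above 50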;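 also: 0% = plate neutral controls and 100% = maraviroc near 300 nM; one replicate is shown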
Rce1 inhib – yeast Rce1p protease inhibitors, primary screen, biochemical, fluorescence, cell-free homogeneous | CAAX prenyl protease 2 (Saccharomyces cerevisiae (strain ATCC 204508 / S288c)), Q03530 | yeast membranes, quenched prenylated peptide cleavage fluorescence | calls only | hit rate 0.27% among 290,000 | AID 2563, 2010;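 active = fall in fluorescence gain of 50% or more versus controls, with final raw signal at or below 3038400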;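 also: plate controls were neutral control wells for no effect and wells lacking membranes for full effect; tested at 10 µM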
MT1-MMP act inh – blockers of MT1-MMP proenzyme processing, primary screen, HT1080 RFP-PRO-GFP cells, GFP/RFP fluorescence. Matrix metalloproteinase-14 (Homo sapiens), P50281. GFP/RFP ratio fluorescence, overnight; percent of plate control window, DMSO zero. GFP/RFP ratio change, % at 20 µM. hit rate 0.061% among 360,000. AID 651647, 2012;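 active = GFP/RFP ratio change of at least 30% with cell ATP level not reduced by more than half and red fluorescence within 50% of control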; also: strong numbers were not always called active
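Test system: HT1080 RFP-PRO-GFP cells; Benchmarks: DMSO and RFP-L50D-GFP cell wells; Timing: cells overnight before dosing, compound overnight, 37 °C, 5% CO2; Compound: one 20 µM compound dose with 1% DMSO; Read-out: GFP/RFP fluorescence ratio.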
eIF4H inh – human eIF4H binding inhibitors, primary screen, translation initiation inhibitor project, biochemical, uHTS, fluorescence polarization; Eukaryotic translation initiation factor 4H (Homo sapiens), Q15056; eIF4H fluorescence polarization binding assay; inhibition, % at 35 µM; hit rate 0.94% among 290,000; AID 2012, 2009;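 active = 50% or more with normal probe brightness, or confirmed in later tests; about a fifth of its hits are not listed in these tables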;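 also: calls also rest on retests at 20 µM and on dose response follow-up; 0% = protein and probe with vehicle and 100% = probe without protein; strong numbers were not always called active; many hits fall short of the cut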
PABP FP inh – PABP poly(A) RNA binding inhibitors, primary screen, biochemical, fluorescence polarization, uHTS | inhibition, % at 35 µM | Polyadenylate-binding protein 1 (Homo sapiens), P11940 | AID 2014, 2009 | hit rate 1% among 290,000;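 active = 50% or more with normal probe brightness, or confirmed in later tests; about a fifth of its hits are not listed in these tables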;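 also: calls also rest on retests at 20 µM and on dose response follow-up; controls were probe without protein and protein plus probe with vehicle; some compounds called inactive have numbers as strong as hits; many hits fall short of the cut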
Target sequence (P11940 whole entry, looked up): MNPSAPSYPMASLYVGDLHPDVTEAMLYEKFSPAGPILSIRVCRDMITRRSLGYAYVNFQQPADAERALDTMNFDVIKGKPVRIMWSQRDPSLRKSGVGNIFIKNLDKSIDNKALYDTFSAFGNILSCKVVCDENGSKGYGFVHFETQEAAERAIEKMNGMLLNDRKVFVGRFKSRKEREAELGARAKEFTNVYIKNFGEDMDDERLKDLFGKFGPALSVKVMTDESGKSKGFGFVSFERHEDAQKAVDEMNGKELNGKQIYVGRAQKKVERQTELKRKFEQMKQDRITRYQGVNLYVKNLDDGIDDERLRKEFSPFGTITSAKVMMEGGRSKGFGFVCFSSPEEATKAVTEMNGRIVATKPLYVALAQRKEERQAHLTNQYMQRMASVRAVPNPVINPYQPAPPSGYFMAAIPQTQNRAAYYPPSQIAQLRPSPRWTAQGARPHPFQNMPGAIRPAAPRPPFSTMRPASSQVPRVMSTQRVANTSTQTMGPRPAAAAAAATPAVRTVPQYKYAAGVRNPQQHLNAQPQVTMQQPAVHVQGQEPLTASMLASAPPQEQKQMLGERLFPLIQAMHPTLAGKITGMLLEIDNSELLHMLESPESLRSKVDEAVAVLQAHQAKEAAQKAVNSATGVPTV
Yeast UUG start – modulators of yeast start codon fidelity, primary screen, whole organism, S. cerevisiae, single point, plate reader; S. cerevisiae UUG-firefly luciferase reporter, luminescence/redox ratio; activity score, % at 18.7 µM; hit rate 0.13% among 350,000; AID 602363, 2012;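 active = replicate mean at a twofold rise or more, about +100% in these data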;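 also: firefly luciferase made from a UUG start codon reports start codon fidelity; reporter light over untreated wells divided by growth signal over untreated wells; some hits fall short of that in this replicate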
CSC inhib – cancer stem cell viability inhibitors, primary screen, luminescence; cancer stem cell-like cells viability; inhibition, % at 7.5 µM; hit rate 1.1% among 300,000;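 active = mean at 75% or more and at least half the replicates too; tested in HMLE shEcad cells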;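 also: 0% = median of negative and 100% = median of positive control wells; the first replicate is given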
MT1-MMP act inh RFP – further read-out of MT1-MMP act inh, marked with its call; RFP signal change, %; measured here: RFP expression control read;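 0 = vehicle wells; hits needed this value within 50% of zero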
* marks the source's active call; other numbers are inactive results.

Screening COC(=O)Cc1[nH]nc2c1C(c1cc(OC)c(OC)c(OC)c1)C(C#N)=C(N)O2 (stereo unspecified) returned Env fusion inh 4.3, Rce1 inhib inactive, MT1-MMP act inh -0.1, eIF4H inh 2.8, PABP FP inh -1.7, Yeast UUG start -8.9, CSC inhib -7.8 and MT1-MMP act inh RFP 1.0.
Screening O=C(CSc1nnc2ccc(-c3ccccn3)nn12)NCC1CCCO1 (stereo unspecified) returned Env fusion inh 0.0, Rce1 inhib inactive, MT1-MMP act inh 3.0, eIF4H inh -7.6, PABP FP inh -5.9, Yeast UUG start 7.4, CSC inhib -4.1 and MT1-MMP act inh RFP 3.6.
Screening COc1ccccc1NC(=O)CCN1C(=O)C2CC=CCC2C1=O (stereo unspecified) returned Env fusion inh 11.0, Rce1 inhib inactive, MT1-MMP act inh -2.3, eIF4H inh -12.0, PABP FP inh 6.7, Yeast UUG start -14.5, CSC inhib 1.2 and MT1-MMP act inh RFP -0.3.
`CCCCn1c(N)c(N(CCOC)C(=O)CSc2ccccc2C)c(=O)[nH]c1=O` gave Env fusion inh 6.1, Rce1 inhib inactive, MT1-MMP act inh -6.2, CSC inhib 24.1 and MT1-MMP act inh RFP 1.4.
For COc1ccc(N=CC2=C(O)c3ccccc3C2=O)c(OC)c1 the results were Rce1 inhib inactive, MT1-MMP act inh 4.1, eIF4H inh -13.1, PABP FP inh -1.4, Yeast UUG start -45.8, CSC inhib 0.0 and MT1-MMP act inh RFP 2.7.
For CCOc1ccc(C(=O)OCC(=O)NC2CCCC2)cc1OCC the results were Env fusion inh 9.5, Rce1 inhib inactive, MT1-MMP act inh -2.4, eIF4H inh -4.8, PABP FP inh 7.7, Yeast UUG start 2.9, CSC inhib -6.8 and MT1-MMP act inh RFP 1.9.
For CCCCOc1nc2ccccc2nc1C(C#N)S(=O)(=O)c1ccccc1 (stereo unspecified) the results were Rce1 inhib inactive, MT1-MMP act inh -0.4, eIF4H inh -6.0, PABP FP inh 7.4, Yeast UUG start -9.8, CSC inhib 31.5 and MT1-MMP act inh RFP -4.7.
Screening Cc1ccc2occ(C(c3nnnn3Cc3ccccc3)N3CCOCC3)c(=O)c2c1 (stereo unspecified) returned Rce1 inhib inactive, MT1-MMP act inh -0.2, eIF4H inh -8.5, PABP FP inh -5.6, CSC inhib -6.8 and MT1-MMP act inh RFP 5.0.
Screening Cc1ccc(Cn2ccc(C3CC3)n2)cc1 returned Env fusion inh -22.9, Rce1 inhib inactive, MT1-MMP act inh 3.3, eIF4H inh -9.8, PABP FP inh 1.1, CSC inhib -6.5 and MT1-MMP act inh RFP 3.4.
Screening CN(C)/C=C/C(=O)c1cc(N2CCOCC2)ccc1[N+](=O)[O-] returned Env fusion inh -3.8, Rce1 inhib inactive, MT1-MMP act inh 1.3, eIF4H inh 12.5, PABP FP inh -4.8, Yeast UUG start -16.7, CSC inhib 6.6 and MT1-MMP act inh RFP 3.0.
Screening COc1ccc(C(=S)N2CCCCCC2)cc1 returned Env fusion inh 3.3, Rce1 inhib inactive, MT1-MMP act inh 1.3, eIF4H inh 5.3, PABP FP inh -2.9, Yeast UUG start -18.8, CSC inhib 7.9 and MT1-MMP act inh RFP 4.6.
Screening CN(C)CCOC(=O)/C(=C/c1cn(C)c2ccccc12)NC(=O)c1ccccc1 returned Env fusion inh 1.8, Rce1 inhib inactive, MT1-MMP act inh -2.6, eIF4H inh -0.3, PABP FP inh -10.3, CSC inhib -1.4 and MT1-MMP act inh RFP 1.6.
COc1ccc(N2CCN(C(=O)COC(=O)CSc3ccccc3)CC2)cc1 was read as Env fusion inh -13.5, MT1-MMP act inh 6.4, Yeast UUG start -1.8 and MT1-MMP act inh RFP 0.9.
For NS(=O)(=O)c1ccc(CCNC(=O)c2cc(-c3ccc(Br)cc3)nc3ccccc23)cc1 the results were Env fusion inh -4.6, Rce1 inhib inactive, MT1-MMP act inh -2.5, eIF4H inh -1.9, PABP FP inh 5.1, CSC inhib 6.3 and MT1-MMP act inh RFP -4.4.
Screening C(=C\c1ccccc1)/CN1CCN(C(c2cccc3ccccc23)c2nnnn2-c2ccc3c(c2)OCCO3)CC1 (stereo unspecified) returned Env fusion inh 0.9, MT1-MMP act inh 0.4, Yeast UUG start -1.4 and MT1-MMP act inh RFP -2.4.
`CCOC(=O)c1ccc(OCc2nc(-c3cccs3)no2)cc1` gave Rce1 inhib inactive, MT1-MMP act inh -1.5, eIF4H inh -7.1, PABP FP inh -1.1, Yeast UUG start -9.8, CSC inhib -34.2 and MT1-MMP act inh RFP 1.2.
Screening COc1ccc(CCNC(=O)COC(=O)CNS(=O)(=O)c2ccc(SC)c([N+](=O)[O-])c2)cc1 returned Env fusion inh -2.9, MT1-MMP act inh 1.4, Yeast UUG start -6.0 and MT1-MMP act inh RFP 3.0.
For COCCN(Cc1ccc(C)cc1)C(=O)[C@H]1O[C@@H](n2cnc3c(N)ncnc32)[C@H](O)[C@@H]1O the results were Env fusion inh 29.0, MT1-MMP act inh 2.7, Yeast UUG start -0.4 and MT1-MMP act inh RFP 3.7.
`CCOC(=O)c1ccc(Oc2nc(NC)nc(Nc3ccccc3)n2)cc1` gave Env fusion inh -32.2, Rce1 inhib inactive, MT1-MMP act inh -7.8, eIF4H inh 1.7, PABP FP inh 8.3, Yeast UUG start -12.5, CSC inhib -3.3 and MT1-MMP act inh RFP -2.5.
`COc1cc(-c2n[nH]c(=S)n2-c2ccc(Br)cc2)cc(OC)c1OC` gave Env fusion inh -19.8, Rce1 inhib inactive, MT1-MMP act inh 3.7, eIF4H inh 4.8, PABP FP inh 10.3, Yeast UUG start -13.4, CSC inhib -13.5 and MT1-MMP act inh RFP 1.5.
`O=C(NNc1ccccc1)C(=O)N1CCCCC1` gave Env fusion inh 14.6, Rce1 inhib inactive, MT1-MMP act inh 3.9, eIF4H inh -6.4, PABP FP inh -15.9, CSC inhib 110.8* and MT1-MMP act inh RFP 9.4.
`CC1CCCN(CCCNC(=O)c2ccc3c(c2)N(Cc2cccc(Cl)c2)C(=O)c2ccccc2S3=O)C1` (stereo unspecified) gave Env fusion inh 1.0, MT1-MMP act inh -1.0, Yeast UUG start -15.2 and MT1-MMP act inh RFP -4.3.
`O=C(Nc1ccccc1C(=O)N1CCOCC1)C1CCCO1` (stereo unspecified) gave Env fusion inh 12.0, Rce1 inhib inactive, MT1-MMP act inh 3.4, eIF4H inh -5.3, PABP FP inh -6.7, Yeast UUG start -6.7, CSC inhib 1.4 and MT1-MMP act inh RFP 5.1.
CSc1n[nH]c(=O)n1-c1ccc(Cl)cc1 was read as Env fusion inh 9.7, Rce1 inhib inactive, MT1-MMP act inh 5.8, eIF4H inh 4.5, PABP FP inh -0.2, CSC inhib -8.6 and MT1-MMP act inh RFP 2.3.
COc1cc([N+](=O)[O-])ccc1NC(=O)Cc1ccccc1 was read as Env fusion inh 3.9, Rce1 inhib inactive, MT1-MMP act inh -1.7, eIF4H inh -4.7, PABP FP inh -6.9, CSC inhib -5.3 and MT1-MMP act inh RFP -4.7.
For COc1ccc(-c2nn(CC(=O)N(C)C)c(=O)c3ccccc23)cc1 the results were Env fusion inh -12.2, Rce1 inhib inactive, MT1-MMP act inh 5.0, eIF4H inh -3.6, PABP FP inh 0.2, Yeast UUG start -10.0, CSC inhib -10.6 and MT1-MMP act inh RFP 4.8.
`COc1ccc(C2=NOC(C(=O)NCc3ccccn3)C2)cc1OC` (stereo unspecified) gave Env fusion inh -21.1, Rce1 inhib inactive, MT1-MMP act inh 7.0, eIF4H inh -0.7, PABP FP inh 12.0, Yeast UUG start -28.3, CSC inhib 9.1 and MT1-MMP act inh RFP 5.6.
COc1ccc(CC(=O)N2CCN=C2SCc2ccc([N+](=O)[O-])cc2)cc1 was read as Env fusion inh 8.6, Rce1 inhib inactive, MT1-MMP act inh 4.5, eIF4H inh -10.4, PABP FP inh -1.0, CSC inhib -2.9 and MT1-MMP act inh RFP -8.7.
CCCc1cc(C(=O)N2CCN(S(=O)(=O)c3ccc(OC)c(OC)c3)CC2)cs1 was read as Env fusion inh 45.8, Rce1 inhib inactive, MT1-MMP act inh -4.0, eIF4H inh -8.1, PABP FP inh 4.8, Yeast UUG start 15.8, CSC inhib 14.9 and MT1-MMP act inh RFP -5.8.
For CSc1ccccc1C(=O)NCc1ccc(S(N)(=O)=O)cc1 the results were Rce1 inhib inactive, MT1-MMP act inh 2.0, eIF4H inh -2.0, PABP FP inh 5.1, Yeast UUG start -35.0, CSC inhib -5.5 and MT1-MMP act inh RFP 2.3.
`CC(C)c1ccc(NC(=O)Cn2c(=O)oc3ccccc32)cc1` gave Env fusion inh -8.3, Rce1 inhib inactive, MT1-MMP act inh 7.6, eIF4H inh -1.0, PABP FP inh -10.8, Yeast UUG start -5.7, CSC inhib 5.8 and MT1-MMP act inh RFP -2.5.
For Cc1ccc(N2CCN(S(=O)(=O)N3CCCCC3)CC2)c(C)c1 the results were Env fusion inh -9.7, eIF4H inh -17.0, PABP FP inh 0.4 and CSC inhib 1.9.
For COc1cc(N2C(=O)c3ccccc3C2=O)c(Cl)cc1C(=O)OCC(=O)N1CCOCC1 the results were Env fusion inh 3.7, Rce1 inhib inactive, MT1-MMP act inh -0.3, eIF4H inh -14.0, PABP FP inh -5.0, CSC inhib -5.4 and MT1-MMP act inh RFP 3.4.
Screening Cn1c(=O)[nH]c(=O)c2c1nc(N1CCCCC1)n2CCOc1ccccc1 returned Rce1 inhib inactive, MT1-MMP act inh 0.4, eIF4H inh 1.6, PABP FP inh -9.7, Yeast UUG start -15.7, CSC inhib 5.2 and MT1-MMP act inh RFP 5.0.
`CCOC(=O)c1c(NC(=O)C2=C(C)NC(=S)NC2c2ccc(F)cc2)sc(C)c1C` (stereo unspecified) gave Env fusion inh -9.4, Rce1 inhib inactive, MT1-MMP act inh -22.4, eIF4H inh -9.9, PABP FP inh 2.0, CSC inhib 28.3 and MT1-MMP act inh RFP -12.7.
Screening O=C1CN(c2cc(Cl)cc(Cl)c2)C(=O)CN1/N=C/c1cccnc1 returned Env fusion inh 7.2, Rce1 inhib inactive, MT1-MMP act inh -2.3, eIF4H inh 0.8, PABP FP inh -6.5, CSC inhib 25.2 and MT1-MMP act inh RFP 2.5.
Screening CCN(CC(=O)Nc1ccc([N+](=O)[O-])cc1OC)CC(=O)NC(C)(C)C returned Env fusion inh 8.0, Rce1 inhib inactive, MT1-MMP act inh 1.0, eIF4H inh 7.8, PABP FP inh 1.5, Yeast UUG start -6.1, CSC inhib -6.0 and MT1-MMP act inh RFP 0.5.
For COC(=O)c1ccc(CNC(=O)COC(=O)c2ccccc2-c2ccccc2)cc1 the results were Rce1 inhib inactive, MT1-MMP act inh -0.9, Yeast UUG start -8.8, CSC inhib -3.6 and MT1-MMP act inh RFP -3.5.
Screening CCCCN(C(=O)CSc1nc2ccccc2n1CC)C1CCS(=O)(=O)C1 (stereo unspecified) returned Env fusion inh -1.9, MT1-MMP act inh -2.4, Yeast UUG start -1.5 and MT1-MMP act inh RFP -1.8.

An excerpt (hit frequency here may not be typical).
